BJeLR viability: lowers viability of BJeLR cells | viability loss activity score, % (test concentration not listed) | hit rate 0.64% among 30,000 | BJeLR fibroblasts viability, CellTiterGlo ATP luminescence, 48 h; HRASV12, hTERT and SV40 LT/ST transformed | AID 2275; in the data active = viability loss activity score above about 50%; about a fifth of its hits are not listed in these tables;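 note: higher score means fewer live cells and less ATP luminescence; stock transfer was 50 or 100 nL into about 30 µL; 0% = vehicle wells and 100% = a reference killing control; one replicate is shown; the record names a cut of 85%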
A1 inhib: inhibitors of A1; MEF A1-2A-BIM cells, caspase-Glo luminescence, 3 h; percent of clofoctol signal, DMSO as zero; caspase activation, % (no concentration beside the values); hit rate 0.51% among 21,000; AID 2241;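 active = most replicate scores above 10, or exactly half above 10 with mean activity above 10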;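 note: effector caspase 3 and 7 activity cleaving a DEVD luciferin substrate; 50 nL library stock added to about 30 µL; numbers are from one replicate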
* hit, by the source's call. Some of the compounds tested, so the mix of outcomes need not match the whole.

What do the screens show for `C[C@H]1CN([C@@H](C)CO)C(=O)c2cc(NC(=O)c3ccncc3)ccc2O[C@H]1CN(C)S(C)(=O)=O`?
BJeLR viability: -0.9; A1 inhib: 0.4

What do the screens show for `CC(C)[C@@H]1CC[C@@H](C)C[C@H]1OC(=O)c1ccccc1`?
BJeLR viability: 0.4; A1 inhib: -0.2

How did COc1cccc2c1N(C(C)=O)C1CC(C)CCC1C2(C)C (stereo not drawn) do in these assays?
BJeLR viability: -2.1; A1 inhib: -0.3

How did Cc1cccc(CCNS(=O)(=O)c2cnc[nH]2)c1 do in these assays?
BJeLR viability: 5.1

Results for CNN1C(=O)c2cccc3cccc(c23)C1=O ?
BJeLR viability: -1.4; A1 inhib: 0.6

How did Cc1ccc(S(=O)(=O)N(C)C[C@@H]2Oc3c(NS(C)(=O)=O)cccc3C(=O)N([C@@H](C)CO)C[C@@H]2C)cc1 do in these assays?
BJeLR viability: -2.4

Results for CC(C)NC(=O)c1cc2n(n1)C(C(F)(F)F)CC(c1cccs1)N2 (stereo not drawn) ?
BJeLR viability: -1.4; A1 inhib: 0.1

What do the screens show for `CCOC(=O)c1ccc(Oc2nc(NC(C)(C)C)nc(N(C)C)n2)cc1`?
BJeLR viability: -4.3; A1 inhib: -0.9

What do the screens show for `CC(C)NC(=O)N(C)C[C@@H]1Oc2c(NS(=O)(=O)c3ccc(Cl)cc3)cccc2C(=O)N([C@@H](C)CO)C[C@@H]1C`?
BJeLR viability: -1.6

How did O=S(=O)(c1ccc(OC(F)(F)F)cc1)N1CCNCC1 do in these assays?
BJeLR viability: 2.0; A1 inhib: 0.1

What do the screens show for `O=C(OCc1nc2ccccc2[nH]1)C12CC3CC(CC(C3)C1)C2`?
BJeLR viability: -4.8; A1 inhib: -0.5

What do the screens show for `C[C@@H]1CN([C@H](C)CO)C(=O)c2cc(N(C)C)ccc2O[C@H]1CN(C)Cc1ccc2c(c1)OCO2`?
BJeLR viability: 3.7; A1 inhib: 0.5

Results for CCOc1ccccc1NC(=O)N1CCOc2ccc(C)cc21 ?
BJeLR viability: -7.7; A1 inhib: -0.3

What do the screens show for `C[C@@H]1CN([C@H](C)CO)C(=O)c2cccc(NS(=O)(=O)c3ccc(Cl)cc3)c2O[C@@H]1CN(C)S(=O)(=O)c1ccccc1`?
BJeLR viability: 0.0

How did C[C@@H]1CN([C@H](C)CO)C(=O)c2cccc(NC(=O)C3CC3)c2O[C@H]1CN(C)Cc1ccc(Oc2ccccc2)cc1 do in these assays?
BJeLR viability: 1.4

What do the screens show for `C[C@@H]1CN([C@@H](C)CO)C(=O)c2cccc(NS(=O)(=O)c3ccc(F)cc3)c2O[C@@H]1CN(C)S(=O)(=O)c1ccccc1`?
BJeLR viability: -2.7

What do the screens show for `O=C(Cc1ccccc1)NCCN1CCOCC1`?
BJeLR viability: -2.6; A1 inhib: 0.5

Results for COc1ccc(CN(C)C[C@@H]2Oc3c(NS(=O)(=O)c4ccc(Cl)cc4)cccc3C(=O)N([C@@H](C)CO)C[C@@H]2C)cc1 ?
BJeLR viability: -2.9

What do the screens show for `Cc1cc(C)cc(NC(=O)CN2C=NS(=O)(=O)c3ccccc32)c1`?
BJeLR viability: 2.5; A1 inhib: 0.8

How did COC(CNC(=O)c1cc2c(s1)-c1ccccc1OC2)OC do in these assays?
BJeLR viability: 1.6; A1 inhib: -1.2

How did C[C@H](CO)N1C[C@H](C)[C@H](CN(C)C(=O)Nc2ccc3c(c2)OCO3)Oc2c(NC(=O)c3ccc(-c4nccs4)cc3)cccc2C1=O do in these assays?
BJeLR viability: -2.4

How did C[C@H]1CN([C@@H](C)CO)C(=O)c2cccc(NC(=O)Nc3ccc4c(c3)OCO4)c2O[C@@H]1CN(C)Cc1ccc(Cl)c(Cl)c1 do in these assays?
BJeLR viability: 2.8

What do the screens show for `NC(=O)c1csc(-c2cccnc2)n1`?
BJeLR viability: -2.3; A1 inhib: 1.6

Results for C[C@@H]1CN([C@@H](C)CO)C(=O)c2cccc(NS(=O)(=O)c3cn(C)cn3)c2O[C@@H]1CN(C)Cc1ccccc1 ?
BJeLR viability: -1.6

What do the screens show for `COc1ccccc1Nc1ncnc2c1cnn2-c1ccccc1`?
BJeLR viability: -3.2; A1 inhib: -0.3

Results for Cc1cc(C(=O)Nc2cccc3c2O[C@@H](CN(C)C(=O)Nc2ccccc2)[C@H](C)CN([C@H](C)CO)C3=O)n(C)n1 ?
BJeLR viability: -4.6

How did Clc1cccc2sc(N3CCCC3)nc12 do in these assays?
BJeLR viability: -5.7

Results for C[C@@H]1CN([C@@H](C)CO)C(=O)c2cccc(NC(=O)c3nc4ccccc4s3)c2O[C@H]1CN(C)Cc1ccc(C(=O)O)cc1 ?
BJeLR viability: 0.4

Results for COc1cc(C(=O)Nc2c3c(nn2-c2ccc(F)cc2)CS(=O)(=O)C3)cc(OC)c1OC ?
BJeLR viability: 0.6; A1 inhib: 0.9

Results for C[C@H]1CN([C@@H](C)CO)C(=O)c2cccc(NC(=O)c3nc4ccccc4s3)c2O[C@@H]1CN(C)C(=O)Nc1ccc(F)cc1 ?
BJeLR viability: -9.1

How did COc1cccc(C(CC(=O)Nc2sc3c(c2C#N)CCCC3)NC(=O)c2ccccc2)c1 (stereo not drawn) do in these assays?
BJeLR viability: -5.5; A1 inhib: -2.4

Results for C[C@H](CO)N1C[C@H](C)[C@H](CN(C)C(=O)Nc2ccc(F)cc2)Oc2ccc(NC(=O)CCN3CCOCC3)cc2C1=O ?
BJeLR viability: -1.0; A1 inhib: -0.5

How did C[C@@H]1CN([C@@H](C)CO)C(=O)c2cc(NS(=O)(=O)c3ccccc3)ccc2O[C@@H]1CN(C)C(=O)Nc1cccc2ccccc12 do in these assays?
BJeLR viability: -0.7; A1 inhib: -0.2

What do the screens show for `CCOc1ccc(S(=O)(=O)N(CC(=O)N2CCC(C)CC2)c2ccccc2)cc1`?
BJeLR viability: 1.2; A1 inhib: 0.4

What do the screens show for `CCCNC(=O)c1ccc(-n2c(-c3ccccc3)cc3c2CCCC3)cc1`?
BJeLR viability: -2.6

How did C=CCn1c(SCC(=O)c2ccccc2)nnc1-c1sc2nc(C)cc(C)c2c1N do in these assays?
BJeLR viability: -0.6; A1 inhib: -0.1

How did COCCN1C(=O)/C(=C/c2cn(CC(=O)OC)c3ccccc23)C(=O)N(c2ccccc2)C1=O do in these assays?
BJeLR viability: -1.9; A1 inhib: 0.1

Results for Cn1c(=O)cc(OCCCC(=O)NC2CCCCC2)c2ccccc21 ?
BJeLR viability: 5.0

What do the screens show for `CSc1nnc2c(n1)OC(C)Nc1ccccc1-2` (stereo not drawn)?
BJeLR viability: -4.1; A1 inhib: 0.8

Results for Cc1ccc(S(=O)(=O)N(C)C[C@@H]2Oc3ccc(NS(=O)(=O)c4ccccc4)cc3C(=O)N([C@H](C)CO)C[C@@H]2C)cc1 ?
BJeLR viability: -1.7; A1 inhib: 0.2

How did CNC[C@H]1Oc2c(NC(=O)NC3CCCCC3)cccc2C(=O)N([C@H](C)CO)C[C@H]1C do in these assays?
BJeLR viability: -3.2

How did Cc1ccc(S(=O)(=O)Nc2cccc3c2O[C@H](CN(C)Cc2ccncc2)[C@@H](C)CN([C@@H](C)CO)C3=O)cc1 do in these assays?
BJeLR viability: -2.3

Results for Cc1noc(C)c1NC(=O)N(C)C[C@H]1Oc2c(NC(=O)NC(C)C)cccc2C(=O)N([C@@H](C)CO)C[C@@H]1C ?
BJeLR viability: -3.1

What do the screens show for `COc1ccc(S(=O)(=O)Nc2ccc3c(c2)C(=O)N([C@@H](C)CO)C[C@H](C)[C@H](CN(C)C(=O)Nc2ccc4c(c2)OCO4)O3)cc1`?
BJeLR viability: -0.1; A1 inhib: 0.0

Results for Cc1c(C)c(C)c(CSc2ccccc2N)c(C)c1C ?
BJeLR viability: 1.8; A1 inhib: 2.2

What do the screens show for `COc1ccc(NC(=O)Nc2ccc3c(c2)C(=O)N([C@@H](C)CO)C[C@H](C)[C@H](CN(C)S(=O)(=O)c2ccc(F)cc2)O3)cc1`?
BJeLR viability: 6.0; A1 inhib: 0.6

What do the screens show for `Cc1noc(C)c1S(=O)(=O)Nc1cccc2c1O[C@@H](CN(C)C(=O)Nc1ccc3c(c1)OCO3)[C@@H](C)CN([C@H](C)CO)C2=O`?
BJeLR viability: 1.0

What do the screens show for `CC(C)NC(=O)N(C)C[C@H]1Oc2c(NC(=O)c3cnccn3)cccc2C(=O)N([C@@H](C)CO)C[C@@H]1C`?
BJeLR viability: -1.4

What do the screens show for `Cc1ccc(NC(=S)NC(=O)CC2CC(C)(C)OC2=O)cc1` (stereo not drawn)?
BJeLR viability: 1.0; A1 inhib: 0.3

How did C[C@@H]1CN([C@@H](C)CO)C(=O)c2cccc(NC(=O)c3cnccn3)c2O[C@@H]1CN(C)S(=O)(=O)c1ccccc1 do in these assays?
BJeLR viability: 3.2

Results for Cc1noc(C)c1S(=O)(=O)Nc1ccc2c(c1)C(=O)N([C@@H](C)CO)C[C@@H](C)[C@H](CN(C)C(=O)Nc1ccc(C(F)(F)F)cc1)O2 ?
BJeLR viability: 1.6; A1 inhib: 0.1

How did COc1ccc(NC(=O)N(C)C[C@@H]2Oc3c(cccc3N(C)C)C(=O)N([C@@H](C)CO)C[C@H]2C)cc1 do in these assays?
BJeLR viability: 0.5

How did O=C(O)c1ccccc1C(=O)Nc1ccc(S(=O)(=O)Nc2nccs2)cc1 do in these assays?
BJeLR viability: -13; A1 inhib: 0.5

How did Cc1ccc(S(=O)(=O)N(C)C[C@@H]2Oc3ccc(NS(C)(=O)=O)cc3C(=O)N([C@H](C)CO)C[C@H]2C)cc1 do in these assays?
BJeLR viability: 6.9; A1 inhib: 1.3

How did O=C(O)CN(CCc1ccccc1)S(=O)(=O)c1ccccc1 do in these assays?
BJeLR viability: 7.1; A1 inhib: 0.1

What do the screens show for `C[C@H]1CN([C@@H](C)CO)C(=O)c2cc(NC(=O)Nc3ccc(C(F)(F)F)cc3)ccc2O[C@H]1CN(C)S(=O)(=O)c1cccs1`?
BJeLR viability: 7.0; A1 inhib: -0.3

How did C[C@@H]1CN([C@H](C)CO)C(=O)c2cccc(NC(=O)C3CCOCC3)c2O[C@@H]1CN(C)Cc1ccncc1 do in these assays?
BJeLR viability: -2.4

Results for Cc1ccc(S(=O)(=O)Nc2cccc3c2O[C@@H](CN(C)C(=O)Nc2ccc(F)cc2)[C@@H](C)CN([C@@H](C)CO)C3=O)cc1 ?
BJeLR viability: 27

Results for Cc1ccc(S(=O)(=O)N(CC(=O)NCc2ccncc2)C2CCCCC2)cc1 ?
BJeLR viability: 0.1; A1 inhib: 1.0

What do the screens show for `COc1ccccc1N1CCN(C(c2cccs2)C(C)NS(=O)(=O)c2ccc(F)cc2)CC1` (stereo not drawn)?
BJeLR viability: -11

Results for C[C@@H]1CN([C@H](C)CO)C(=O)c2cc(NC(=O)Cc3cn(C)c4ccccc34)ccc2O[C@H]1CN(C)C ?
BJeLR viability: -0.3; A1 inhib: -0.1

What do the screens show for `CCc1cc2c(SCC(=O)c3ccc(Br)cc3)ncnc2s1`?
BJeLR viability: -2.1; A1 inhib: 1.8

How did O=C(NCC(c1cccnc1)N1CCN(c2ccccc2)CC1)OCc1ccccc1 (stereo not drawn) do in these assays?
BJeLR viability: -4.6; A1 inhib: -0.5

How did C[C@@H]1CN([C@@H](C)CO)C(=O)c2cccc(NC(=O)c3ccc(-c4nccs4)cc3)c2O[C@H]1CN(C)C(=O)Nc1cccc2ccccc12 do in these assays?
BJeLR viability: -4.6

How did Cc1nc2c3ccccc3n3c(CCCC(=O)NCCc4ccc(Cl)cc4)nnc3n2n1 do in these assays?
BJeLR viability: -2.2; A1 inhib: 0.6

How did COc1ccc(NC(=O)Nc2cccc3c2O[C@@H](CN(C)C(=O)Nc2cccc4ccccc24)[C@H](C)CN([C@H](C)CO)C3=O)cc1 do in these assays?
BJeLR viability: -2.8

Results for CC(C)NC(=O)Nc1ccc2c(c1)C(=O)N([C@@H](C)CO)C[C@H](C)[C@@H](CN(C)Cc1ccncc1)O2 ?
BJeLR viability: 4.5; A1 inhib: 1.0

What do the screens show for `COc1ccc(NC(=O)Nc2ccc3c(c2)C(=O)N([C@H](C)CO)C[C@@H](C)[C@H](CN(C)S(=O)(=O)c2cn(C)cn2)O3)cc1`?
BJeLR viability: -5.0; A1 inhib: -0.2

Screens as filed in PubChem.
